High-throughput results from PubChem BioAssay.
RanGTP-Imp inh – inhibitors of RanGTP-importin-beta interaction, primary screen, biochemical, FRET, CFP-Ran, YFP-importin-beta, homogeneous; Ran GTPase (GTP-bound) - importin-beta complex; cell-free CFP-Ran/YFP-importin-beta FRET ratio; inhibition, % (test concentration not listed); 1.1% of 300,000 active; AID 2216, 2009;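 active = most replicates above 15%; inconclusive = exactly half above 15%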;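 note: 0% = DMSO wells and 100% = Ran loaded with GDP instead of GTP; wells of about 40 µL received 100 nL stock; the first replicate is given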
Bfl-1 A1 inh – caspase 3/7 activation in MEF A1-2A-BIM cells, primary screen, A1 inhibitor project, cell-based, luminescence, HTS; Caspase-Glo 3/7 luminescence, 3 h; percent of clofoctol response, vehicle zero; caspase activation, % (test concentration not listed); 0.066% of 330,000 active;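 active = over half of replicate activation scores above 10%, or exactly half above 10 with the replicate mean above 10; inconclusive = replicate mean below 10 yet half the replicates above 10; inactive = over half of replicates below 10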;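 note: wells of about 30 µL received 50 nL stock; many hits fall short of the cut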
Calb FLC – C. albicans growth inhibition with fluconazole, primary screen, CaCi-2 strain, Alamar Blue fluorescence | C. albicans CaCi-2 (fluconazole-resistant clinical isolate) + fluconazole, 48 h | growth inhibition, % (test concentration not listed) | 0.57% of 300,000 active | AID 1979, 2009;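 active = most replicates above 75%; inconclusive = exactly half above 75%; inactive = most below 75%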;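 note: all wells also contain fluconazole at 8 µg/ml as a sub-toxic cotreatment; 0% = median of DMSO wells and 100% = median of geldanamycin control wells; wells of about 8 µL received 7.5 nL stock; the first replicate is given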
LANA-H2A inh – blockers of LANA interaction with H2A/H2B – biochemical, FP readout, HTS, primary screen; Protein LANA1 (Human herpesvirus 8 type P (isolate GK18)), Q9QR71; cell-free LANA-H2A/H2B peptide, fluorescence polarization; inhibition, % (concentration not given with the values); 0.6% of 320,000 active; in the data active = inhibition mostly above about 10%, no sharp cut-off; inactive = mostly below about 6.7%;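 note: stock transfer was 7.5 nL into about 10 µL; 0% = median of vehicle wells and 100% = median of positive control wells; one replicate is shown; the record names a cut of 25% in any replicate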
UCH37 inh – inhibitors of human UCH37 deubiquitinase, primary screen, biochemical, Ub-AMC cleavage, fluorescence | Ubiquitin carboxyl-terminal hydrolase isozyme L5 (Homo sapiens), Q9Y5K5 | purified proteasome/UCH37 | inhibition, % (no concentration beside the values) | 0.33% of 330,000 active | AID 588478, 2011;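 active = mean of two replicates above 20%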;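 note: 0% = compound-free wells with enzyme and 100% = wells lacking proteasome; stock transfer was 100 nL into about 20 µL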
Target sequence (Q9Y5K5 whole entry, looked up): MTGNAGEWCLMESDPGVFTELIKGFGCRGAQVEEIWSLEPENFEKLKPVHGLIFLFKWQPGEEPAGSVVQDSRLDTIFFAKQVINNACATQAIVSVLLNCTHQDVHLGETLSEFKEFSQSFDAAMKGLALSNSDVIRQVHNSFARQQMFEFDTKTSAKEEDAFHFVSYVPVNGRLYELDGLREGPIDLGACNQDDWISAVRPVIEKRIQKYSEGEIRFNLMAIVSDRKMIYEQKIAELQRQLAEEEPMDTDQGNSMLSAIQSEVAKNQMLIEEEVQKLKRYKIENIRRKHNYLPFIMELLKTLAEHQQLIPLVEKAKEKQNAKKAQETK
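Material: Human UCH37 enzyme supplied as purified proteasome complex | Schedule: 30 min preincubation with enzyme, 25 min cleavage at room temperature | Detection: AMC fluorescence 355/460 nm | Measure: % inhibition of Ub-AMC cleavage fluorescence | Controls: Wells without proteasome as full block, compound-free enzyme plus substrate as uninhibited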
Beta cell apopt – inhibitors of cytokine-induced beta cell apoptosis, primary screen, luminescence. AID 435005, 2010. INS-1E cytokine-induced death, ATP luminescence, 48 h; percent of positive-control rescue, neutral wells zero. 0.8% of 300,000 active. protection from apoptosis, % (concentration not given with the values);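 active = all replicates at 75% or more, or half of them and the mean; inconclusive = half reach 75% but not the mean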;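 note: 0% = cytokine-treated negative control wells and 100% = positive control rescue; higher means more ATP so stronger rescue from cytokine killing; wells of about 40 µL received 100 nL stock; the first replicate is given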
B2AR ag – beta2AR agonists driving receptor internalization, primary screen, cell-based, FAP fluorogen, flow cytometry; 0.43% of 340,000 active; Am2.2-beta2AR cells; reference of the scale not given here; response, % (concentration not given with the values); Beta-2 adrenergic receptor (Homo sapiens), P07550;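 active = response above a set limit, near 3 SD of response in nonfluorescent compounds, cut at about 42% in these data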;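 note: stock transfer was 100 nL into about 11 µL; a reference agonist was the positive control; negative values mostly stem from fluorescent compounds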
Target sequence (P07550 whole entry, looked up): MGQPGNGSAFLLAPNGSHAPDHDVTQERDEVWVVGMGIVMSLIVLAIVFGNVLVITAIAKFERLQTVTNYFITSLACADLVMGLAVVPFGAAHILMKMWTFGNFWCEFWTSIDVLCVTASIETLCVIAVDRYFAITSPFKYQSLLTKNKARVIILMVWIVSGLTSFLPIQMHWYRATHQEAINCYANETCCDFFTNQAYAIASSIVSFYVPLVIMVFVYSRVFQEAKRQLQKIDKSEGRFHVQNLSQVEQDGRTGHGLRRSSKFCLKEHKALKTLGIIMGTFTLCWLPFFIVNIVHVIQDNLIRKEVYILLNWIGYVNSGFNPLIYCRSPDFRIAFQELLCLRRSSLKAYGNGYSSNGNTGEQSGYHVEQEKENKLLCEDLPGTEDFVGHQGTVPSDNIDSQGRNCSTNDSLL
T cruzi repl – inhibitors of intracellular T. cruzi growth, primary screen, luminescence, NIH3T3 host cells | T. cruzi beta-gal in NIH3T3, 90 h | inhibition, % (test concentration not listed) | 1.4% of 300,000 active | AID 1885, 2009;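 active = mean inhibition across valid replicates above about 55%, limit read from the data; inconclusive = mean below that limit but half or more replicates reach it; inactive = mean below it, under half of replicates reach it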;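 note: signal also drops with host cell toxicity which is not excluded here; 0% = plate median of DMSO wells and 100% = zero luminescence signal; higher percent means less beta-gal luminescence so fewer parasites; stock transfer was 50 nL into about 50 µL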
Active calls of the source: *; u = inconclusive; x = not tested or not shown.

SMILES	RanGTP-Imp inh	Bfl-1 A1 inh	Calb FLC	LANA-H2A inh	UCH37 inh	Beta cell apopt	B2AR ag	T cruzi repl
Nn1c(SCC(=O)Nc2ccc3c(c2)OCCO3)nnc1-c1ccncc1	9.2	-0.2	8	-0.1	1.5	2	0	-4
Cc1cc([N+](=O)[O-])ccc1NC(=O)COc1nsnc1N1CCOCC1	1.1	-0.2	-6	-7.5	2.5	-6	-15	18
COc1cc(NC(=O)CN(C)S(=O)(=O)c2ccc(C)cc2)cc(OC)c1	-1.1	-1.8	-6	-0.2	5.0	-11	-1	-5
CN(CC(=O)N1CCCCC1)S(=O)(=O)c1cccc2nsnc12	6.1	2.5	7	1.0	3.5	-5	11	-9
Cc1ccccc1NC(=O)C(C)n1c2ccccc2c2nc(=O)cc(C)n21 (stereo not given)	-3.3	-0.1	16	2.6	-0.7	-1	2	2
CC12CCC(C(=O)Nc3ccccc3Cl)(C(Br)C1=O)C2(C)C (stereo not given)	4.1	0.2	4	-2.0	4.0	-7	-5	17
CCCCc1ccc(NC(=O)CC(C)C)cc1	1.7	0.5	-20	4.4	-0.8	-3	-6	-34
O=C(Cn1cc2c(n1)CCCC2)NC1CCCCCC1	2.1	-1.6	-5	-0.2	5.5	-3	-8	-2
CCOC(=O)CSc1c(-c2cccs2)[nH]c2ccccc12	-0.8	-0.7	19	14	5.3	-10	7	7
CCC(C(=O)OCC(=O)N1C(C)CCCC1C)c1ccccc1 (stereo not given)	-1.6	0.5	-15	6.9	3.8	-5	x	9
COc1ccc([N+](=O)[O-])cc1/C=N/Nc1nn[nH]n1	4.6	-1.6	-6	-0.4	x	-2	7	-3
CCn1c(C(=O)N2CCC(C(=O)NCCCSC3CCCCC3)CC2)cc2sccc21	-2.5	0.8	-6	0.2	2.7	6	-13	-10
COc1cc(CNc2cccc3[nH]c(C(F)(F)F)nc23)cc(OC)c1	-2.6	0.2	13	3.1	-4.0	-5	11	8
O=C(Nc1nc2ccccc2n1Cc1ccccc1)c1ccc(COc2ccccc2[N+](=O)[O-])o1	-3.8	-0.7	-25	1.9	3.1	24	-5	68*
COC(=O)Cc1csc(Nc2ccc(F)c(Cl)c2)n1	5.0	-0.4	-34	-4.9	5.0	-5	4	-1
Cc1ccsc1CNC12CC3CC(CC(C3)C1)C2	1.1	0.1	8	1.9	0.5	-1	-9	-4
O=C(O)c1cccc(S(=O)(=O)Nc2ccc3c(c2)CCC3)c1	2.3	0.4	8	0.0	0.8	x	2	-5
O=C1/C(=C/c2ccccn2)SC(=S)N1CCc1ccccc1	0.0	-0.6	9	-1.0	6.7	x	1	2
CCOC(=O)CSc1nnc(CNc2cccc(Cl)c2)n1C	-4.9	0.1	-5	-5.9	4.3	0	19	1
CCOCCCNCc1ccc(OCC(=O)N2CCOCC2)c(OC)c1	-2.5	0.5	-8	-1.5	1.1	-2	1	14
CC1CCCC(NC(=O)CSc2nnc(N)s2)C1C (stereo not given)	-2.3	0.6	1	-1.9	1.1	-1	13	-6
O=C1CCC(=O)N1OCCOc1ccccc1	7.9	-0.4	-15	-0.2	1.7	-5	-4	-21
COc1ccc(CN2C[C@H](C)[C@@H](CC(=O)NCc3ccccc3)C2=O)cc1	u	1.1	1	4.3	5.0	2	-6	6
COc1ccccc1-c1oc2ccccc2c1C#CCCO	x	0.3	x	-2.4	2.6	0	-1	x
CC(=O)c1ccc(NC(=O)Cn2cnc(S(=O)(=O)N3CCOCC3)c2)cc1	1.2	0.1	3	2.2	1.8	0	-4	-7
CN1CCN(Cc2cc(Cl)c3cccnc3c2OC(=O)c2cccs2)CC1	7.6	0.5	2	-2.6	5.6	50	-4	5
COc1ccc2nc(N(CCN(C)C)C(=O)c3ccc4c(c3)OCCO4)sc2c1	2.4	-0.6	0	4.3	1.7	-7	-5	65*
CC(=O)C1=C(C)NC(SCC(=O)c2ccccc2)=C(C#N)C1c1ccco1 (stereo not given)	-5.3	-0.6	12	3.0	x	x	x	8
O=C(Nc1ccc(F)cc1)N(Cc1nnc2n1CCCCC2)c1ccccc1	0.0	0.7	-5	1.3	4.9	-5	-5	-16
CC(C)(C)c1ccc(/C=N/Nc2ccc(C(=O)O)cc2)cc1	-4.0	-8.2	6	-2.3	x	-15	2	7
CC1CCCCC1NC(=O)CSc1nnc(N)s1 (stereo not given)	-3.7	-0.3	-3	-0.3	0.5	-7	2	-20
COc1cc([N+](=O)[O-])ccc1NC(=O)CC1SC(=Nc2ccc(F)cc2)N(CCC2=CCCCC2)C1=O (stereo not given)	-4.1	0.0	-22	2.6	8.2	110*	-3	52
O=C(CCN1C(=O)COc2ccccc21)N1CCCCC1	24*	-0.7	-3	1.8	4.0	-5	-3	-11
COc1ccc(NS(=O)(=O)c2ccc(C)c(NC(=O)CN3C(=O)NC4(CCCC4)C3=O)c2)cc1	x	1.4	x	-3.7	3.2	-7	-6	x
O=C(COc1ccc(S(=O)(=O)N2CCOCC2)cc1)NC1CC1	2.5	-0.7	-1	3.2	-1.0	-13	1	-13
CCOc1ccc(S(=O)(=O)N(CC(=O)NN=C2CCN(C)CC2)c2ccc(C)cc2)cc1	3.2	1.0	36	6.9	2.1	-2	-1	8
CC1(C)CC(=O)C(C(=S)Nc2ccccc2)=C(NC2CC(C)(C)NC(C)(C)C2)C1	-6.4	-0.4	15	0.7	1.4	4	4	-14
Cc1[nH]nc(Nc2ccc(C(C)C)cc2)c1[N+](=O)[O-]	-1.1	-3.3	-16	-5.6	2.5	0	1	19
O=C(NCC1CCCO1)C1CCCN(c2ncccn2)C1 (stereo not given)	-2.1	1.2	0	-1.3	-1.7	0	0	-13
COc1cccc(CN2CCN(C3CCN(c4ccccc4C)CC3)CC2CCO)c1 (stereo not given)	0.2	-0.2	-18	3.1	0.4	-2	-2	43
O=C(NCc1cccc(C(F)(F)F)c1)c1cc(-c2ccccc2)nn1CC1CC(c2cccnc2)=NO1 (stereo not given)	8.6	-0.7	-1	3.3	1.8	-3	-2	50
CCC1Oc2ccccc2N(CC(=O)NCCN2CCCC2)C1=O (stereo not given)	1.5	-0.3	1	-0.9	7.6	2	3	-29
CCCCOc1ccc(C2=NNC(=O)CC2)cc1	-1.4	-1.1	6	-4.5	0.9	6	-34	-9
O=C(Oc1oc(-c2ccco2)nc1C=Nc1ccccc1)c1ccco1	-0.7	-0.4	5	-4.8	-2.3	-2	14	-5
CCC(C(=O)c1ccccc1)P(=O)(NN)c1ccccc1 (stereo not given)	0.8	-0.3	3	-2.7	3.5	4	1	-8
CCOc1ccc(NC(=O)c2ccc(CC)s2)c([N+](=O)[O-])c1	-1.0	-1.1	-7	2.0	3.2	-1	0	7
Cn1c(=O)c2c(nc(Cc3ccc(N)cc3)n2C)n(C)c1=O	5.5	1.0	-4	3.6	x	3	-2	1
COc1ccc(C2C(C(=O)OCC3CCCO3)=C(C)NC3=C2C(=O)CC(c2ccco2)C3)cc1O (stereo not given)	-1.4	0.1	-3	2.3	1.5	-3	-11	-1
Cc1cccc(NC(=O)Nc2ccc(S(N)(=O)=O)cc2)c1	4.4	-0.9	9	1.8	4.3	9	9	-15
CCc1ccc[n+](-c2[nH]c(=O)sc2/C=N/N=C(\N)[O-])c1	5.6	0.1	8	3.1	x	-2	-3	-17
O=C(CN1C(=O)NC2(CCCC2)C1=O)Nc1ccccc1C(F)(F)F	-2.8	0.4	-1	-0.9	5.5	x	2	-3
Cc1ccc(NC(=S)N2CCN(c3ncccn3)CC2)cc1C	6.0	-0.6	0	-4.4	6.3	-12	-7	-32
O=C(Nc1cccc(-c2cccc(F)c2)c1)C1CCN(Cc2ccco2)CC1	2.1	-0.2	2	0.1	6.8	-5	1	11
COc1ccc(Br)c(C(=O)NCC2CCCCC2)c1	-8.2	0.3	-14	-1.2	5.4	1	-8	-3
O=C(O)C(c1ccccc1)N1C(=O)/C(=C/c2cccs2)SC1=S (stereo not given)	0.5	-0.2	3	1.9	8.8	-5	-1	-3
COc1ccccc1NC(=O)Nc1cccc(NC(C)=O)c1	1.8	-0.9	-8	-0.7	2.5	-1	-12	-8
O=C(NC1CCSc2ccccc21)c1ccc([N+](=O)[O-])cc1 (stereo not given)	-0.8	2.4	-3	0.5	3.2	x	7	-3
O=C(NC(=S)Nc1ccc(O)cc1)C1CCCC1	x	0.6	x	-0.3	2.9	-6	-9	x
N#Cc1ccccc1NC(=O)COc1c(Br)cc(Br)c2cccnc12	2.9	-0.9	-8	-0.2	2.7	-7	-4	-13
COCC(C)NCc1cccc2ccccc12 (stereo not given)	-0.9	1.1	-16	3.5	4.2	-2	2	-1

Ordered by molecular weight (lowest first): 3 of the compounds above
SMILES	RanGTP-Imp inh	Bfl-1 A1 inh	Calb FLC	LANA-H2A inh	UCH37 inh	Beta cell apopt	B2AR ag	T cruzi repl
O=C(NC(=S)Nc1ccc(O)cc1)C1CCCC1	x	0.6	x	-0.3	2.9	-6	-9	x
CCOc1ccc(NC(=O)c2ccc(CC)s2)c([N+](=O)[O-])c1	-1.0	-1.1	-7	2.0	3.2	-1	0	7
O=C(CN1C(=O)NC2(CCCC2)C1=O)Nc1ccccc1C(F)(F)F	-2.8	0.4	-1	-0.9	5.5	x	2	-3

Next part.
SMILES	RanGTP-Imp inh	Bfl-1 A1 inh	Calb FLC	LANA-H2A inh	UCH37 inh	Beta cell apopt	B2AR ag	T cruzi repl
Fc1cccc(CCN2CCNC[C@@H]2c2ccccc2)c1	x	0.4	x	-3.5	1.9	-1	4	x
Cn1c(=O)n(C)c2cc(NC(=O)c3ccccc3[N+](=O)[O-])c(Br)cc21	-2.9	0.2	-3	-2.0	-0.5	-2	-2	-11
Cc1ccc(C(=O)NCC(=O)OCc2c(F)cccc2Cl)cc1	3.0	0.5	0	-4.6	4.8	1	5	-12
COc1ccc(-c2c(C(C)=O)c(C)nc3sc4c(c23)NC(c2ccccc2)NC4=O)cc1 (stereo not given)	6.3	-1.5	3	-6.0	-293	7	8	9
Cc1ccc2c(c1)nnn2C1CCN(S(=O)(=O)c2ccc(C(=O)N(C)C3CCCCC3)cc2)CC1	3.0	0.3	-2	0.3	3.8	29	2	42
CCN(Cc1ccncc1)C(=O)CC1C(=O)NCCN1Cc1ccc(F)c(F)c1 (stereo not given)	-3.6	1.9	-11	-1.2	-0.6	-8	-5	-5
COc1ccc(NC(=O)CN2CCCC2c2cccs2)cc1S(=O)(=O)N1CCCCC1 (stereo not given)	x	0.4	x	-1.3	-1.1	15	11	x
CCOc1ccc(CN(C)C(=O)CNC(=O)C2CCCCC2)cc1OC	-5.0	-4.6	1	-2.9	5.8	0	-1	-3
CCCCCCC(=O)Nc1nc(C)c(-c2csc(Nc3ccccc3OC)n2)s1	-4.0	0.1	-22	-8.0	-4.5	-19	-16	7
COc1cc(S(=O)(=O)Nc2ccc(C)cc2)ccc1N=Cc1c(C)[nH]n(-c2ccccc2)c1=O	-3.8	0.0	-3	-3.7	-0.8	4	12	-7
